Cruzain inh Det = qHTS Assay for Promiscuous and Specific Inhibitors of Cruzain (with detergent); Cruzipain (Trypanosoma cruzi), P25779; AID 1478, 2009; purified cruzain, Z-FR-AMC fluorescence, 0.01% Triton; 200,000 tested, 0.43% active; Potency, µM, inactives show max response, negative = inhibition, actives largely listed as inhibitors; active = well fitted curve in the direction sought with a large enough effect; inconclusive = small, poorly fitted or top-dose-only effect, or another doubt; inactive = no such curve, though single readings can be large; an effect the other way counts as inactive or inconclusive;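 also: plate controls were neutral wells for no effect and buffer without enzyme for full effect; nearly all actives have a fitted effect of over 40% in size; top concentration of the series not given in the record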
Target sequence (P25779 123-467 limits assumed): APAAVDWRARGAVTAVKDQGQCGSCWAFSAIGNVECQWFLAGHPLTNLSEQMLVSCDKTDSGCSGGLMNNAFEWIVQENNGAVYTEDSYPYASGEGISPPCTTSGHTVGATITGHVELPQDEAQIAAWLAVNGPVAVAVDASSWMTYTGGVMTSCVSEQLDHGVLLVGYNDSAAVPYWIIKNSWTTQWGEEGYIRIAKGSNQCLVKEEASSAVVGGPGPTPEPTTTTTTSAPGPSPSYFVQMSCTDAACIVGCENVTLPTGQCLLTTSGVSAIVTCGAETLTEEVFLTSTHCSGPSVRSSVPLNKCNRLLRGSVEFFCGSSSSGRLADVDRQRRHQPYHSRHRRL
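Detergent-containing arm of a paired screen for aggregation-based inhibition: 0.01% Triton X-100 present. Cruzain at 1.5 nM cleaved 2 uM Z-FR-AMC at pH 5.5 with 5 mM DTT; AMC fluorescence gain over 60 s measured activity.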
Lassa entry inh = qHTS for Inhibitors of binding or entry into cells for Lassa Virus | Potency, µM (titrated, usually from 37.9 µM), without a hit: top-dose activity change, negative = inhibition, hits mostly inhibitors | 300,000 tested, 1.2% active | Lassa virus pseudotype entry inhibition, cell reporter; control for the full effect not named in the record; active means well fitted inhibition curve with a large enough effect; inconclusive means small, poorly fitted or top-dose-only effect, or effect the other way; inactive means flat fitted curve, though single readings scatter; tested in HEK293 cells; also: % is scaled to controls: 0 for no effect and ±100 for the full control effect; nearly all actives have a fitted effect of over 50% in size; luciferase read-out
2A StopGo = High Throughput Screening for Foot and Mouth Disease Virus Antivirals; human cells with a luciferase reporter of 2A StopGo recoding; control for the full effect not named in the record; Potency, µM (highest dose often 57.9 µM), for the others: at the highest dose signal change, negative = less light; 410,000 tested, 1.2% active; AID 1159524, 2015; active = well fitted falling curve with a large enough effect; inconclusive = small, poorly fitted or top-dose-only effect; inactive = no such curve, though single readings can be large or run the other way; tested in HEK293T cells; also: % is scaled to controls: 0 for no effect and ±100 for the full control effect; nearly all actives have a fitted effect of over 45% in size; luciferase light after 4 h
Cruzain noTriton = qHTS Assay for Promiscuous and Specific Inhibitors of Cruzain (without detergent); Cruzipain (Trypanosoma cruzi), P25779; 200,000 tested, 2.3% active; purified cruzain, Z-FR-AMC fluorescence, no detergent; Potency, µM, for inactives: max response, negative = inhibition, most hits filed as inhibitors; AID 1476, 2009; active = well fitted curve in the direction sought with a large enough effect; inconclusive = small, poorly fitted or top-dose-only effect, or another doubt; inactive = no such curve, though single readings can be large; an effect the other way counts as inactive or inconclusive;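 also: plate controls were enzyme without inhibitor for no effect and buffer without enzyme for full effect; nearly all actives have a fitted effect of over 40% in size; top concentration of the series not given in the record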
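Purified cruzain at 1.5 nM, pre-incubated 15 min with compound at room temperature in 100 mM sodium acetate pH 5.5, 5 mM DTT, 0.00005% Triton X-100. Reaction started with 2 uM Z-FR-AMC; AMC fluorescence increase over 60 s gives rate.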
SARS PLpro yeast = qHTS of Yeast-based Assay for SARS-CoV PLP | 330,000 tested, 0.19% active | AID 485353, 2010 | S. cerevisiae expressing SARS-CoV PLpro, growth rescue; control for the full effect not named in the record | Potency, µM (highest dose often 32.9 µM), without a hit: top-dose activity, positive = growth rescue; also: 0% is about no effect; nearly all actives have a fitted effect of over 55% in size; growth read by luminescence after 48 h
MARV entry inh = qHTS for inhibitors of binding or entry into cells for Marburg Virus. 300,000 tested, 1.8% active. Potency, µM (titrated, usually from 37.8 µM), without a hit: at the top dose activity change, negative = inhibition, most hits filed as inhibitors. Marburg virus pseudotyped entry inhibition, cell reporter; control for the full effect not named in the record; about a third of the inactives were read at about 46 µM; active = well fitted inhibition curve with a large enough effect; inconclusive = small, poorly fitted or top-dose-only effect, or effect the other way; inactive = flat fitted curve, though single readings scatter; tested in HEK293 cells; about a fifth of its hits are not listed in these tables; also: % is scaled to controls: 0 for no effect and ±100 for the full control effect; luciferase read-out
NS1 function inh = qHTS Assay for Inhibitors of Influenza NS1 Protein Function | S. cerevisiae slowed by influenza A NS1, growth recovery by OD600 | 270,000 tested, 0.4% active | Potency, µM (titrated, usually from 46.1 µM), for inactives: at the highest dose activity, positive = more growth | AID 2326, 2010; also: actives are rising curves; nearly all actives have a fitted effect of over 50% in size
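Recovery from NS1-induced slow growth read by OD600 in budding yeast switched to galactose assay medium (pH 6.0, -URA) at 1:100 dilution. Compound 23 nl per well; the matching strain lacking NS1 serves as control.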
RE007 growth inh = qHTS Assay for Inhibitors of the HIV-1 protein Vpr; Potency, µM (titrated, usually from 92.2 µM), inactives show top-dose activity change, negative = less growth; S. pombe RE007 Vpr strain, BacTiter-Glo ATP luminescence, 24 h; control for the full effect not named in the record; 360,000 tested, 0.21% active; active = well fitted falling curve with a large enough effect; inconclusive = small, poorly fitted or top-dose-only effect; inactive = no such curve, though single readings can be large or run the other way;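 also: % is scaled to controls: 0 for no effect and ±100 for the full control effect; nearly all actives have a fitted effect of over 50% in size; the assay follows cell death caused by Vpr and the record does not say whether a fall means rescue or toxicity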
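Fission yeast RE007 carrying one integrated HIV-1 vpr copy, seeded at OD 0.01 in PMG+AL medium with 23 nL pinned compound. Grown 24 h at 30 degrees; viability read by BacTiter-Glo luminescence after 5 min.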
An asterisk follows results filed as active; ? = inconclusive; / = no result given; & = joins results of further samples; [ ] = dose if it differs, or a comment. Unless noted, calls follow the shape of the dose curve; as a rule, active means well fitted rising curve with a large enough effect; inconclusive means small, poorly fitted or top-dose-only effect; inactive means no such curve, though single readings can be large or run the other way. Potency is read from the fitted curve at half-maximal effect.

SMILES | Cruzain inh Det | Lassa entry inh | 2A StopGo | Cruzain noTriton | SARS PLpro yeast | MARV entry inh | NS1 function inh | RE007 growth inh
Cc1cc(C(=O)OCC(=O)Nc2cccc(S(N)(=O)=O)c2)c2ccccc2n1 | / | 9% | -30% | / | 1% | 16%[46.1 µM] | 3% | 28%
Cn1c2c(c3cc([N+](=O)[O-])ccc31)CCCC2 | / | 9% | 0% | / | -4% | 6% | -4% | -1%
CCC(=O)NCCC(c1ccco1)c1ccccc1OC (stereo not drawn) | -22% | 7% | -12% | ? | -7% | ? | ? | 5%
O=C(NCCN1CCOCC1)c1cc2ccccc2oc1=O | / | 5% | 27% | / | 1% | ? | -1% | -13%
Oc1ccccc1/C=C/c1noc(-c2ccccc2O)n1 | / | / | 20% | / | 0% | -24%[46.1 µM] | 0% | -10%
COc1cc(CNCc2cc(OC)ccc2OC)cc(OC)c1 | / | / | -18% | / | 6% | / | 9% | -2%
CC(C)CCn1cnc2c(oc3nc4c(cc32)CCCC4)c1=O | / | / | ? | / | -1% | / | -6% | -18%
O=C(CN1CCCC1)NC12CC3CC(CC(C3)C1)C2 | 0.1% | 4% | -18% | -4% | -1% | ? | 8% | 13%
CCOC(=O)CC(NC(=O)CCc1c(C)nc2ncnn2c1C)c1ccc(C)cc1 (stereo not drawn) | 0.5% | 5%&6%[46.1 µM] | 4%&-10% | 14% | 1% | -6%&2%[46.1 µM] | / | 1%
Cc1ccc(CNC(=O)c2nc(SCc3ccccc3F)ncc2Cl)cc1 | -2.9% | 2%[46.1 µM] | -19% | -9% | / | 4%[46.1 µM] | / | /
C=Cn1ccnc1P(=S)(c1ccc(N(C)C)cc1)c1nccn1C=C | 0.2% | -2% | -20% | ? | -6% | 4% | -6% | -8%
O=S(=O)(c1ccc(Cl)cc1)n1nnc2ccccc21 | 3.8% | 16% | 1% | -11% | -3% | -5% | -5% | -1%
Cc1noc(C(F)(F)F)c1C(=O)NNC(=O)c1ccccc1 | / | 13% | 7% | / | 0% | -4% | -2% | 10%
CCC(=NC1CC1)c1c(O)n(C2CCCCC2)c(=O)[nH]c1=O | -1.6% | -49% | 16% | -10% | 0% | 6% | -18% | 5%
O=C1NCCCc2c1oc1ccc(O)cc21 | 3.8% | ? | 52%[activator] | -1% | -4% | ? | 0% | 1%
CC(=O)N1c2ccc(S(=O)(=O)NCCC(=O)Nc3ccc(F)cc3C)cc2CC1C (stereo not drawn) | / | / | -1% | / | 10% | / | 3% | -6%
CCc1ccccc1NC(=S)N(CCN1CCCCCC1)Cc1ccco1 | / | 2% | -7% | / | 4% | 3%[46.1 µM] | / | -16%
Cc1noc(NC(=O)c2cccc(C(F)(F)F)c2)c1Cl | / | -20% | -6% | / | -3% | -23%[46.1 µM] | -7% | -19%
O=C(c1ccccc1F)N1CCCC(C(=O)N2CCN(c3ccccc3)CC2)C1 (stereo not drawn) | / | 8% | -22% | / | 0% | 0%[46.1 µM] | -9% | 1%
COc1ccc(-c2nnc(SCC(=O)NC3CCCCC3)nc2-c2ccc(OC)cc2)cc1 | -3.1% | ? | -10% | -8% | / | / | / | /
Nc1ccccc1-n1c(=O)n(Cc2ccccc2F)c(=O)c2[nH]cnc21 | / | / | -19% | / | 0% | 1% | -2% | -7%
OC1(c2ccc(OC(F)F)cc2)CSC(=Nc2cccnc2)N1Cc1ccco1 (stereo not drawn) | / | ? | 8.9µM* | / | -4% | ? | / | 20%
COc1ccc(NC(=O)c2cnn(-c3ccc(C)c(C)c3)c2C2CCNCC2)cc1OC | -0.8% | 0%[46.1 µM] | -19% | -3% | / | / | / | /
CC(=O)/C(=N\Nc1ccccc1)Sc1cccc2cccnc12 | -8.4% | 1% | -22% | 12% | 0% | -13% | 15% | -19%
Cc1nc(SCCOc2ccccc2)[nH]c(=O)c1Cc1ccccc1 | / | -26% | 8% | / | -3% | -22%[14.2 µM] | 0% | -1%
Other structures.
SMILES | Cruzain inh Det | Lassa entry inh | 2A StopGo | Cruzain noTriton | SARS PLpro yeast | MARV entry inh | NS1 function inh | RE007 growth inh
Cn1c(NC(=O)c2ccco2)cc(=O)n(C)c1=O | -4.7% | 20% | / | -6% | -4% | 11% | 5% | -2%
CCc1ccc(C(=O)c2cn(CC(=O)Nc3ccc(F)cc3)c3ccc(F)cc3c2=O)cc1 | -8.9% | ? | 0% | -11% | / | ? | / | /
CN(C)S(=O)(=O)c1cccc(NC(=S)NN=C(Cc2ccccc2)Cc2ccccc2)c1 | -2.6% | 14% | 10% | 32µM* | -19% | 2% | 27% | 4%
CCC(C)NC(=O)C(Cc1ccccc1)NS(=O)(=O)c1ccc2c(c1)CCC(=O)N2 (stereo not drawn) | / | / | -5% | / | -3% | / | 13% | 0%
CCOc1cc(C(=O)O)cc(Cl)c1OCC#N | 4.1% | 8% | -4% | 2% | -1% | -8% | -2% | -1%
CCN(CCN(C)C)C(=O)Cn1ncc2c([nH]c3ccc(C)cc32)c1=O | -3.4% | ? | -16% | 6% | / | / | / | /
COc1cc(C(C(=O)NC(C)(C)C)N(Cc2ccccc2)C(=O)c2cnccn2)cc(OC)c1OC (stereo not drawn) | 6.8% | -22% | -12% | 12% | -4% | 0%&0% | -1% | 3%
CCC(=O)NNC(=O)c1cc(COc2cc(Cl)cc(Cl)c2)on1 | / | / | -16% | / | 0% | / | -10% | 7%
COc1ccc(NC(=O)c2sc3nc4c(cc3c2N)N2CCC4CC2)cc1OC | -4.9% | ? | ? | 2% | / | / | / | /
Cc1ccc(S(=O)(=O)Nc2ccccc2/C=N/c2nc3ccccc3n2C)cc1 | -13% | ? | -13% | -4% | -84% | ? | -40% | -3%
COc1ccc(O)c(CN2CCCC(C(=O)c3ccccc3SC)C2)c1 (stereo not drawn) | / | -6% | ? | / | -2% | ? | 1% | -8%
COc1ccc(-c2csc(/C(C#N)=C(\O)CSc3nccn3C)n2)cc1OC | -13% | -2% | -5% | -4% | 8% | 24% | 4% | -14%
CCOc1ccccc1C(=O)Nc1cnn(Cc2ccc(F)cc2)c1 | -0.9% | -10% | -10% | -8% | 9% | ? | -31% | -17%
CCOCCCNCC(O)c1ccccc1 (stereo not drawn) | 2.7% | 5% | -17% | -9% | 10% | -2% | 4% | 12%
COc1nc(NC(C)(C)C)nc(Oc2ccc(=O)n(-c3ccccc3)n2)n1 | 0.7% | -1% | ? | 18% | 5% | 14% | -11% | 8%
O=C(NCc1ccccc1Cl)c1cccn1-c1nnc(N2CCCCC2)s1 | -0.5% | -17%[46.1 µM] | 46%[activator] | -7% | / | / | / | /
COc1ccc(-c2cc(C(=O)N3CC(C)CC(C)C3)c3ccccc3n2)cc1 (stereo not drawn) | / | -15%[46.1 µM] | 19% | / | -4% | ? | / | 25%
Cc1ccccc1C(=O)OC(C)CN1CCOCC1 (stereo not drawn) | / | / | 6% | / | 1% | / | -1% | 14%
C=CCNC(=O)COC(=O)c1cc(S(=O)(=O)N2CCOCC2)ccc1N1CCCCC1 | -0.1% | 7% | 13% | -2% | 13% | -1% | 11% | 4%
COC(C(=O)NNC(=O)Cc1ccc(Cl)cc1)c1ccccc1 (stereo not drawn) | / | -12% | 3% | / | 1% | 2%[46.1 µM] | 5% | 2%
COc1cc(/C=N/Nc2cccc(C)c2)ccc1OC(=O)c1cccs1 | -2.8% | 6% | 24% | 16µM* | -17% | ? | -11% | 138%
N#C/C(=C\c1ccc(O)cc1)C(=O)NCC1CCCO1 (stereo not drawn) | -2.3% | 28%[46.1 µM] | 37%[activator] | 5% | / | / | / | /
O=C(O)/C=C/c1cn(Cc2ccccc2)nc1-c1cccs1 | / | 8% | 3% | / | -5% | -10% | / | 24%
CCN(CC)S(=O)(=O)c1ccc(C(=O)NCCCn2ccnc2)cc1 | / | 1% | 0% | / | 1% | -3%[46.1 µM] | / | -8%

Compounds listed so far that contain fluorine:
SMILES | Cruzain inh Det | Lassa entry inh | 2A StopGo | Cruzain noTriton | SARS PLpro yeast | MARV entry inh | NS1 function inh | RE007 growth inh
Cc1ccc(CNC(=O)c2nc(SCc3ccccc3F)ncc2Cl)cc1 | -2.9% | 2%[46.1 µM] | -19% | -9% | / | 4%[46.1 µM] | / | /
Cc1noc(C(F)(F)F)c1C(=O)NNC(=O)c1ccccc1 | / | 13% | 7% | / | 0% | -4% | -2% | 10%
CC(=O)N1c2ccc(S(=O)(=O)NCCC(=O)Nc3ccc(F)cc3C)cc2CC1C (stereo not drawn) | / | / | -1% | / | 10% | / | 3% | -6%
Cc1noc(NC(=O)c2cccc(C(F)(F)F)c2)c1Cl | / | -20% | -6% | / | -3% | -23%[46.1 µM] | -7% | -19%
O=C(c1ccccc1F)N1CCCC(C(=O)N2CCN(c3ccccc3)CC2)C1 (stereo not drawn) | / | 8% | -22% | / | 0% | 0%[46.1 µM] | -9% | 1%
Nc1ccccc1-n1c(=O)n(Cc2ccccc2F)c(=O)c2[nH]cnc21 | / | / | -19% | / | 0% | 1% | -2% | -7%
OC1(c2ccc(OC(F)F)cc2)CSC(=Nc2cccnc2)N1Cc1ccco1 (stereo not drawn) | / | ? | 8.9µM* | / | -4% | ? | / | 20%
CCc1ccc(C(=O)c2cn(CC(=O)Nc3ccc(F)cc3)c3ccc(F)cc3c2=O)cc1 | -8.9% | ? | 0% | -11% | / | ? | / | /
CCOc1ccccc1C(=O)Nc1cnn(Cc2ccc(F)cc2)c1 | -0.9% | -10% | -10% | -8% | 9% | ? | -31% | -17%
